# Screening results as filed in PubChem.
# VACV mCherry inh: vaccinia inhibition (mCherry reporter) | Potency, µM (series often up to 36.5 µM), for inactives: top-dose activity change, negative = inhibition, usual class: inhibitors | 0.63% of 310,000 active | Vaccinia virus mCherry reporter infection, fluorescence; about a quarter of the inactives have no number; active = well fitted inhibition curve with a large enough effect; inconclusive = small, poorly fitted or top-dose-only effect; inactive = no such curve, though single readings can be large or run the other way; tested in A549 cells; further: nearly all actives have a fitted effect of over 35% in size; inactives centre near -10
# Vaccinia Venus: vaccinia inhibition (Venus reporter); Vaccinia virus Venus reporter expression, fluorescence; AID 720580; 0.46% of 330,000 active; Potency, µM (series often up to 36.5 µM), without a hit: top-dose activity change, negative = inhibition, most hits filed as inhibitors; active means well fitted inhibition curve with a large enough effect; inconclusive means small, poorly fitted or top-dose-only effect; inactive means no such curve, though single readings can be large or run the other way; tested in A549 cells; further: nearly all actives have a fitted effect of over 30% in size; inactives centre near -10
# * hit, by the source's call; i = inactive; ? = inconclusive; nt = not tested or not shown; & = joins results of further samples; [ ] = remark or other dose. On the % scale 0 is the no-effect control and ±100 the full control effect; potency means the concentration at half of the fitted maximal effect. Not a hit list. Share with any hit: about 0.87%.
SMILES,VACV mCherry inh,Vaccinia Venus
COc1ccc(Br)cc1CNC(=O)CCCc1cn(C)c2ccccc12,?,?
CCCCOc1ccccc1C1NC(=O)NC(C)=C1C(=O)OCCOC (centres undefined),-3.5%,-16.6%
CCCCc1c(-c2ccccc2OC)ncn1CCc1cccc(F)c1,-10.5%,-8.2%
N=c1oc2cc(O)ccc2cc1C(=O)Nc1ccc(F)cc1,i,-4.9%
COC(=O)C1=C(c2ccc(-c3ccccc3)c(F)c2)C[C@@H]2CC[C@H]1N2C(=O)NCc1cccc2ccccc12,-11.9%,-27.4%
Cn1c(=O)[nH]c(=O)c2c1nc(Br)n2CC(O)COc1ccccc1 (centres undefined),-14.4%,-6.8%
Cc1csc(SCCN2C(=O)c3ccccc3C2=O)n1,-12.3%,-4.6%
CN(C)C(=O)c1ccc(NC(=O)CSc2nc3ccccc3[nH]2)cc1,-10.6%,-6.6%
CCOc1ccc2c(c1)c1nnc(SCC(=O)N3CCC(C)CC3)nc1n2C,?,?
CN=C1CN(O)C(c2ccccc2)c2cc(Cl)ccc2N1 (centres undefined),?,-10.7%
COc1cccc2[nH]c3c(N4CCCC(C)C4)ncnc3c12 (centres undefined),?,-27.0%
CC(C)c1ccc(NC(=O)c2ccc(F)c(S(=O)(=O)N3CCN(c4ccccc4F)CC3)c2)cc1,-1.7%,-28.0%
O=C(O)/C=C\C(=O)Nc1ccccc1F,-13.0%,-13.3%
COc1cccc(CN2C(=O)c3ccccc3C2C(=O)NCCc2ccc(OC)c(OC)c2)c1 (centres undefined),-1.2%,-5.4%
Cc1ccc(OCc2ccc(-c3nc(C#N)c(NCc4cccnc4)o3)o2)cc1,-8.7%,-11.8%
COc1cc(/C=C2\SC(=Nc3ccccc3)N(CCc3c[nH]c4ccccc34)C2=O)ccc1OC(C)C(=O)O (centres undefined),-15.0%,1.9%
Cc1ccc(NC(=O)NCCc2c(C)nn(C)c2C)cc1Cl,-4.3%,-8.1%
CCCCC1CCC(C(=O)N2CC(=O)Nc3ccc(Br)cc3C2c2ccc(F)cc2)CC1 (centres undefined),-15.0%,-17.3%
CCc1nc2ccc(C(=O)N(C)Cc3ccco3)cn2c1N(CC)Cc1cccc(Br)c1,-16.6%,-11.0%
Cn1c(NCC2CCCCC2)nc2cc(-c3ccsc3)sc2c1=O,-0.8%,-24.7%
Cc1cc(C(=O)NNc2ccc(F)cc2F)no1,i[7.34 µM],3.2%[7.34 µM]
CNC(=O)C(=O)NCC1OCCCN1S(=O)(=O)c1ccc(F)cc1C (centres undefined),-8.7%,-10.4%
CC(C)(CNC(=O)c1cnn(-c2nccc(-c3cc4ccccc4o3)n2)c1C1CC1)N1CCOCC1,-0.2%,-0.7%
Cc1cc(C(=O)NNC(=O)c2cccc(N(C)C)c2)c(C)o1,i,-0.1%
CS(=O)(=O)c1ccc(-c2nnn(CC(N)=O)n2)cc1,-13.0%,-8.0%

# Record cards (already shown). Values in the order: VACV mCherry inh, Vaccinia Venus
# COc1cc(/C=C2\SC(=Nc3ccccc3)N(CCc3c[nH]c4ccccc34)C2=O)ccc1OC(C)C(=O)O (centres undefined) is listed as -15.0%, 1.9%
# N=c1oc2cc(O)ccc2cc1C(=O)Nc1ccc(F)cc1 is listed as i, -4.9%
# Cc1csc(SCCN2C(=O)c3ccccc3C2=O)n1 is listed as -12.3%, -4.6%

# Next part
SMILES,VACV mCherry inh,Vaccinia Venus
CC(C)/C=N/NC(=O)c1cc(Br)ccc1O,i,-7.0%
COc1ccc(S(=O)(=O)N2CCC3(CC2)OCCN3S(=O)(=O)c2ccc(C)cc2)cc1OC,-16.7%,-19.0%
O=C1CCc2cc(S(=O)(=O)N3CCC(C(=O)Nc4nccs4)CC3)ccc2N1,i,-4.1%
Cc1ccccc1-c1noc(-c2ccc(O)cc2)n1,i,-18.6%
COc1cc(-c2cc(OC)c3c(C)oc(C)c3c(=O)c2)ccc1OC(=O)c1ccccc1Cl,-16.7%,7.9%
COc1ccccc1C(=O)NCCN1CCN(C(=O)c2ccccc2OC)CC1,-20.5%,-15.5%
Cc1cc(C(=O)N2CCC(C)(C(=O)NS(=O)(=O)C3CC3)C2)n(C(C)(C)C)n1 (centres undefined),63.6%[activator],10.8%
Cc1cnc(C(=O)OCC(=O)Nc2cc(-c3cc(C)c(C)cc3C)nn2-c2ccccc2)cn1,i,-15.4%
CC(=O)Nc1ccc(S(=O)(=O)NCCC(=O)N2CCc3ccccc32)cc1,-6.7%,2.8%
Cc1cc(NC(=O)c2ccc(F)c(S(=O)(=O)N3CCCCC3)c2)no1,i,-16.0%
CC(=O)N1C(=O)/C(=C2\SC(=S)N(NC(=O)c3ccc(O)cc3)C2=O)c2ccccc21,-10.1%,-20.0%
Cc1ccc(/C=N/n2c(C3CCCCC3)n[nH]c2=S)s1,-27.2%,-24.6%
Cc1ccccc1C[n+]1cccc2ccccc21,-19.8%,-20.1%
Cc1nc2ccn(Cc3ccco3)c(=O)c2cc1C(=O)N1CCN(c2ccccc2)CC1,-13.5%,-14.4%
CC(C)Oc1ccc(Cc2cnc(=S)[nH]c2N)cc1,-9.3%,-5.3%
CC1CCN(CC(=O)Nc2ccc(S(=O)(=O)N3CCC(C)CC3)cc2)CC1,?,?
Oc1cc(-c2nc3ccccc3s2)cc2c1OCCN(Cc1cccn1-c1ccc(Cl)cn1)C2,-7.4%,-0.9%
C=CCN(C(=O)c1ccccc1)c1ccc(OC)cc1,-5.8%,?
O=C(c1ccc(F)cc1)c1c[nH]c(C(=O)NCc2ccco2)c1,nt,-12.0%
Cc1ccc(C)c(C(=O)COC(=O)c2cc(S(=O)(=O)N3CCOCC3)ccc2F)c1,-3.9%,-9.2%
O=C1c2ccccc2C(=O)N1CCCn1nnc(-c2ccc(N3CCOCC3)cc2)n1,-15.5%,-7.4%
O=C(c1ccccc1Sc1ccccc1[N+](=O)[O-])N1CCCCC1,-8.0%,-5.1%
O=c1[nH][nH]c2c1[C@H](CCc1cccc(Cl)c1)O[C@H](CCc1ccccc1)C2,16.8%,3.3%
Cc1ccc(-c2nc3ccccc3c(=O)n2-c2cccc(O)c2)cc1,i,0.9%
CC(C)(O)CC[C@@H](O)[C@](C)(O)[C@H]1CC[C@@]2(O)C3=CC(=O)[C@@H]4C[C@@H](O)[C@@H](O)C[C@]4(C)[C@H]3CC[C@]12C,i,-15.1%

# Remaining list, next part.
SMILES,VACV mCherry inh,Vaccinia Venus
COc1ccc(NC(=O)C(NC(=O)Cc2cccs2)c2ccc(OC)cc2)cc1 (centres undefined),-18.7%,-2.1%
CC(=O)c1cccc(NC(=O)Nc2cccnc2)c1,-12.5%,-6.6%
Cc1ccc(CCNC(=O)C2CCCN(S(=O)(=O)c3cccc4nsnc34)C2)cc1 (centres undefined),-19.1%,-4.1%
CSc1cccc(NC(=O)C2CCN(S(=O)(=O)c3ccc4[nH]c(=O)ccc4c3)CC2)c1,6.0%,-4.2%
O=C(CCCNS(=O)(=O)c1ccc(F)cc1)Nc1ccc(F)cc1,-9.3%,5.6%
Cc1cccc(/C(N)=N/OC(=O)CCCc2ccccc2)c1,i,-6.0%
Cc1ncc(CO)c2c1Oc1nc(-c3ccccc3Cl)nc(SCc3ccccc3F)c1C2,?,?
COc1cc(OC)c(NC(=O)c2cc(C)nc3c2c(C)nn3-c2ccc(C)cc2)cc1Cl,-0.1%,-5.7%
Nc1nnc(-c2ccccc2[N+](=O)[O-])o1,-11.2%,-5.7%
CCOC(=O)c1ccc(NC(=O)NCc2ccccc2OC)cc1,-14.2%,-7.9%
Cc1noc(NS(=O)(=O)c2ccc(NC(=O)/C=C/c3ccccc3)cc2)c1C,-15.9%,-13.7%
CCOc1cc(C(=O)N2CCN(c3ccccc3)CC2)cc(OCC)c1OCC,-14.5%[1.46 µM],-10.5%
CCn1c(=O)cc(SCC(=O)Nc2ccc(C)cn2)c2ccccc21,?,10µM*
CCOc1ccc(-c2nc(CSc3nnc(C)s3)cs2)cc1OC,nt,-7.5%
COc1ccc2c(c1)C(=O)c1ccccc1CO2,-11.0%,-3.7%
Cc1ccc(OCc2nnc(NC(=O)c3ccco3)s2)cc1,nt,-21.2%
CCc1c(C)sc2c1CCN(C(=O)Nc1ccccc1Cl)C2c1ccc(OC)cc1 (centres undefined),-13.8%,9.2%
C#CCN1CCN(c2cccc(C(F)(F)F)c2)CC1,-3.6%,-1.2%
C=CCn1c(CCC)nc2ccccc21,i,-3.7%
Cc1cccn2c(=O)c3cc(C(=O)NC4CCCCC4C)n(C)c3nc12 (centres undefined),-12.4%,-10.6%
COc1cccc(C(=O)Nc2c3c(nn2-c2ccc(C)cc2C)CS(=O)(=O)C3)c1OC,-11.9%,-10.2%
COC(=O)c1c(NC(=O)C2COc3ccccc3O2)sc2c1CCN(C(C)=O)C2 (centres undefined),?,?
COc1ccc(OC)c(NC(=O)CN(Cc2ccc(F)cc2)C2CCCCC2)c1,-28.9%,-17.9%
CCCc1ccc(S(=O)(=O)N2CCN(Cc3ccco3)CC2)cc1,-3.3%,-16.5%
COc1ccc(CCNC(=O)c2cc(Nc3ccccc3)nc3ccccc23)cc1OC,-2.7%,-3.7%

# The results go on.
SMILES,VACV mCherry inh,Vaccinia Venus
CC1CCCC(NC(=O)CN(C)S(=O)(=O)c2cccc3cccnc23)C1C (centres undefined),28.2%,-4.2%
CCCCn1c(NCc2ccc(N(C)C)cc2)nc2ccccc21,-26.0%,-24.7%
CC(=O)N1CCN(c2csc3ccc(F)cc3c2=O)CC1,-13.5%,-16.6%
Cc1cccc(-n2c(O)c(C=NCCN3CCCCC3)c(=O)[nH]c2=O)c1,-34.1%,1.8%
Cc1cc(NC(=O)CSc2nc3c(C)cccc3cc2C)no1,i,-4.7%
COc1ccc(OCCn2c(C)c(/C=N/n3cnnc3)c3ccccc32)cc1,nt,?
O=C(C1CCC(=O)N(C2CCCC2)C1)N1CCC(Oc2cccc(F)c2)CC1 (centres undefined),-17.4%,-19.2%
CCn1c(SCC(=O)n2nc(C)cc2C)nnc1-c1ccc2c(c1)OCO2,-8.9%,-5.2%
CCN(CC)C(=O)CCCc1c[nH]c2ccccc12,-10.6%,-14.9%
CCOC(=O)c1cnc2ccc(C)cc2c1N(C)Cc1ccccc1,i,-25.1%
Cn1c(=O)c2c(nc(OCc3ccc4c(c3)OCO4)n2Cc2ccccc2Cl)n(C)c1=O,nt,-5.1%
COc1ccc(S(=O)(=O)N(C)C[C@H]2Oc3cc(Br)ccc3S(=O)(=O)N([C@H](C)CO)C[C@H]2C)cc1,-22.2%,?
COc1ccc(C(=O)Nc2ccc(NC(=O)c3ccccc3F)cn2)cc1,11.0%,-9.5%
Cc1nn(CC(=O)N2CCN(c3ccccc3)CC2)c(C)c1[N+](=O)[O-],i,-7.9%
CCCS(=O)(=O)NC(=O)C1(C)CCN(C(=O)c2ccc(F)c(C)c2)C1 (centres undefined),i,2.5%
CC(C)n1cc(CN2CCCC(CO)(Cc3cccc(Cl)c3)C2)cn1 (centres undefined),-2.8%,-9.2%
Oc1oc(-c2ccccc2)nc1/C=N/c1ccccn1,i,-12.8%
COCCCn1c(=N)c(C(N)=S)cc2c(=O)n3cccc(C)c3nc21,5.4%,-3.2%
Cc1ccc(S(=O)(=O)N2CCN(c3ccc(S(=O)(=O)N4CCOCC4)cn3)CC2)cc1,nt,-26.3%
COc1ncccc1C(=O)N1CCCC(C(=O)c2cccc(OC(C)C)c2)C1 (centres undefined),-2.4%,-17.1%
COCCNc1nc2cc(-c3ccc(F)cc3)sc2c(=O)n1C,-14.5%,-10.6%
O=C(CSCc1c(Cl)cccc1Cl)Nc1ccccc1C(=O)N1CCOCC1,i,-9.5%
CCC1COCCS(=O)(=O)N1Cc1cccc(Cl)c1 (centres undefined),i,-11.3%&-11.2%
C=Cc1ccc(CC2(C)C(=O)Nc3ccc(-c4cccnc4)cc32)cc1 (centres undefined),-12.8%,-14.4%
CCc1nc2c(OCC3COc4ccccc4O3)cccn2c1N(C)C(=O)c1cccc(OC)c1 (centres undefined),-1.1%,-1.9%

# Continuation.
SMILES,VACV mCherry inh,Vaccinia Venus
COc1ccc(N2CCN(C(=O)Cc3ccc(Cl)cc3)CC2)cc1,-29.9%,-15.1%
Cc1ccc(NC(=S)NCc2ccc3c(c2)OCO3)cc1,-2.7%,-11.0%
Cc1ccc(NC(=O)c2cccc(C(=O)Nc3ccc(C)c(C)c3)n2)cc1C,-9.6%,-0.4%
COc1cc2c(cc1OC)CN(C(=O)C1CCC(=O)N(CCCN3CCOCC3)C1)CC2 (centres undefined),-21.8%,-7.4%
CCOc1ccc2nc3sc(C(=O)N4CCOCC4)c(N)c3cc2c1,-20.5%,-16.1%
C=CCc1ccc(OCCOCCOc2cccc3cccnc23)c(OC)c1,-15.3%,-12.0%
COc1ccc(CNC(=O)CN2C(=O)CSc3ccc(S(=O)(=O)N(C)C)cc32)cc1,-15.2%,-4.3%
O=C(c1cccc(Oc2c(Cl)cccc2[N+](=O)[O-])c1)N1CCOCC1,?,-9.2%
O=C(NC(=S)Nc1ccc(CN2CCOCC2)cc1)c1ccc(-c2ccc(Br)cc2)o1,i,17.2%
COc1cccc(NC(=S)Nc2cc(C(=O)O)ccc2N2CC3CC(C2)c2cccc(=O)n2C3)c1 (centres undefined),-3.0%,-9.7%
Cc1cc(C)nc(SCc2ccc(Cl)cc2)n1,i,-5.5%

# Two entries picked at random from those above, as already listed:
SMILES,VACV mCherry inh,Vaccinia Venus
COc1cccc(NC(=S)Nc2cc(C(=O)O)ccc2N2CC3CC(C2)c2cccc(=O)n2C3)c1 (centres undefined),-3.0%,-9.7%
CCOc1ccc2nc3sc(C(=O)N4CCOCC4)c(N)c3cc2c1,-20.5%,-16.1%
